Sfp PPTase inh: qHTS Assay for Inhibitors of Bacillus subtilis Sfp phosphopantetheinyl transferase (PPTase); 4'-phosphopantetheinyl transferase ffp (Bacillus subtilis), Q9F4F7; Biochemical Sfp PPTase activity, qHTS; Potency, µM, for the others: max response, negative = inhibition, actives largely listed as inhibitors; 3.5% of 310,000 active; active means well fitted inhibition curve with a large enough effect; inconclusive means small, poorly fitted or top-dose-only effect, or another doubt; inactive means no such curve, though single readings can be large or run the other way;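 further: the enzyme is Sfp with the accession as filed and its product quenches rhodamine fluorescence; potency means the concentration at half of the fitted maximal effect; 0% = enzyme reaction without inhibitor and -100% = no enzyme wells; top concentration of the series not given in the record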
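Fluorescence-quenching assay: 15 nM Sfp-PPTase preincubated 15 min at room temperature with compound, then 5 uM rhodamine-CoA and 12.5 uM BHQ-2-labelled YbbR peptide added. Fluorescence (ex 525/em 598 nm) read at start and after 30 min; difference gives rate.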
Menin MLL FP FL: qHTS Assay for Inhibitors Targeting the Menin-MLL Interaction in MLL Related Leukemias: Competition With Fluorescein Labeled MLL-derived Peptide. Fluorescence polarization, fluorescein-MLL peptide displacement from menin. FP activity change, % at 61.4 µM. 290,000 tested, under 10 active; inconclusive = falling polarisation curve, or a change in total fluorescence; inactive = total fluorescence flat and polarisation flat or rising; no compound was filed as active; the % refers to the polarisation; negative = inhibition;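 further: % of control where 0% means no effect; inhibitors lower the polarisation; unlabelled MLL peptide was the positive control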
The depositor's hits bear a star; u = inconclusive; & = joins results of further samples; [ ] = remark or other dose.

item	Menin MLL FP FL	Sfp PPTase inh	Molecule
1	2.8	2%	O=C(Oc1ccccc1)N1CCC2(CC1)CN(c1ncccn1)C2
2	-0.8[11.7 µM]	11%	COc1ccc(COC(=O)N/N=C2/C[C@@H](O)[C@@H](O)[C@@H]3[C@@H]4C(=O)N(Cc5ccc6c(c5)OCO6)C(=O)[C@H]4CC[C@H]23)cc1
3	4.9	-3%	COc1ccc(CNc2cc(-c3cccc(NS(C)(=O)=O)c3)ncn2)c(OC)c1
4	-16	12%	Cc1cc(=O)oc2cc(O[C@@H]3O[C@H](C(=O)O)[C@@H](O)[C@H](O)[C@H]3O)ccc12
5	-0.6	-3%	COc1ccc2c(c1)C(=O)[C@@H](OC(=O)NCCc1ccc(OC)c(OC)c1)[C@H](c1ccc(OC)c(Br)c1)O2
6	-2.4	13%	COCC(=O)N1CCC[C@@]2(CCN(Cc3ccccc3OC)C2)C1
7	-11	-8%	CN(C)c1ncc2nc(CCc3ccccc3)c(=O)n(CCC#N)c2n1
8	9.9	-10%	CN(N=O)C(=O)N[C@H]1C(O)OC(CO)[C@@H](O)[C@H]1O (stereo partly drawn)
9	-1.2	20%	CC1=C(/C=C/C(C)=C/C=C/C(C)=C/C(=O)Oc2c(C)c(C)c3c(c2C)CC[C@@](C)(CCC[C@H](C)CCC[C@H](C)CCCC(C)C)O3)C(C)(C)CCC1
10	10	3%	O=C(c1ccncc1)N1CCC2(CCCN(Cc3ccccc3)C2)CC1
11	-2.2	-8%	N#Cc1cccc(-c2cc(NCc3cccs3)ncn2)c1
12	-4.2	9%&-20%&9%&-29%&-6%&4%	CC1=C(\C=C/C(C)=C/C=C\C(C)=C\C(=O)O)C(C)(C)CCC1
13	-1.8	-13%	Cc1noc(C)c1-c1nc(N2CCN(C)CC2)c2ccccc2n1
14	6.1	7%	C[C@]12C=CC(=O)N[C@@H]1CC[C@@H]1C2CC[C@]2(C)C(C(=O)Nc3cc(C(F)(F)F)ccc3C(F)(F)F)CC[C@@H]12 (stereo partly drawn)
15	-0.9&2.3	-12%&11%	CC(=O)Oc1cccc(C)c1
16	2.7	-7%	COC(=O)CC1C2(C)CC34OC5(C)O[C@@]6(C7/C(=C(/OC)C(C)C)C(=O)OC(c8ccoc8)[C@@]7(C)C(OC(=O)C(C)C)C(OC)[C@]6(O5)[C@@]13C)C(OC)[C@]4(OC)C2OC(C)=O (stereo partly drawn)
17	6.1[11.7 µM]	0%	COC(=O)N1C2=C(c3ccccc3[C@@H]1CC(=O)Nc1ccc3ccc4cccc5ccc1c3c45)[C@@H]1C(=O)N(c3ccccc3)C(=O)[C@@H]1[C@H](C)C2
18	-0.1	14%	CC(C)NC(=O)N1CCC2(CC1)CCN(C(=O)c1ccncc1)CC2
19	-2.7	-22%	CC[C@H](C)[C@H](NC(=O)[C@H](Cc1ccc(O)cc1)NC(=O)[C@@H](NC(=O)[C@H](CCCN=C(N)N)NC(=O)[C@@H](N)CC(=O)O)C(C)C)C(=O)N[C@@H](Cc1cnc[nH]1)C(=O)N1CCC[C@H]1C(=O)N[C@@H](Cc1ccccc1)C(=O)N[C@@H](Cc1cnc[nH]1)C(=O)N[C@@H](CC(C)C)C(=O)O
20	-2.7	14%	COC(=O)c1ccc(C(/C=C/[C@@H](C)C(=O)N[C@H](C)CO)NC(=O)OCc2ccccc2)cc1 (stereo partly drawn)
21	-0.9[11.7 µM]	22%	Cc1ccc(S(=O)(=O)N[C@H]2COC(=O)[C@H](C)COC(=O)[C@H](C)NC(=O)C/C=C\[C@H]2C)cc1
22	17	-20%	CCn1ccnc1C[C@@H]1COc2ccccc2O1
23	-6.6	0%	C/C=C(\C)C(=O)OC1C(OC(=O)C2(C)OC2C)c2cc3ccc(=O)oc3cc2OC1(C)C (stereo not drawn)
24	-7.5	0%	C[C@H]1CCCC(=O)CCC/C=C/c2c(O)cc(O)cc2C(=O)O1
25	-1.6	56µM*	CC(N)(C(=O)O)c1ccc(C(=O)O)cc1 (stereo not drawn)
26	0.1&-0.3	10µM*	COc1cc(O)c2c(c1)oc(=O)c1c3cc(O)c(O)cc3oc21
27	-0.1[11.7 µM]	13%	CO[C@@H]1COC(=O)[C@H](CCSC)NC(=O)C/C=C\[C@@H](C)COC(=O)[C@@H]2CCCN2C(=O)C/C=C\[C@H]1C
28	6.2	16%	Cc1c(C(=O)N(C)C2CCCCC2)sc2nc3ccc(N)cc3n12
29	-1.5	10%	CC(=O)OC1CC2C(C)(C)C(O)CC(O)[C@@]2(C)C2CC[C@@]3(C)C(=CC(=O)OC3c3ccoc3)[C@]12C (stereo partly drawn)
30	1.9	14%	COC(=O)N[C@@H](/C=C/c1ccccc1)C[N+](=O)[O-]
31	-1.6	28%	COC(=O)c1ccc(C(NC(=O)c2ccccc2)[C@]2(C)C[C@H]2C2CCCCC2)cc1 (stereo partly drawn)
32	0.7	u	COc1cccc(-c2cc(NCCc3c[nH]c4ccc(OC)cc34)ncn2)c1
33	-0.4	-5%	Cc1cccc(-c2[nH]c(C(C)(C)C)nc2-c2ccc3c(c2)OCO3)n1
34	-0.7	14%	COc1cc(NS(=O)(=O)c2cccc([N+](=O)[O-])c2)c2ncccc2c1
35	46[activator]	2%	CC(=O)Oc1cc(OC(C)=O)c2c(=O)cc(-c3ccc(OC(C)=O)c(OC(C)=O)c3)oc2c1
36	12	-67%	Cc1cc(O)c(C=O)c2c1C(=O)Oc1c(C)c(O)c3c(c1O2)C(O)OC3=O (stereo not drawn)
37	20	7%	O=c1cnc2cncnc2n1Cc1ccc(F)cc1
38	-2.6	-80%	CCCCCCOc1ccccc1C(N)=O
39	-1.2	7%&-17%	CCCCC/C=C\CC1OC1CCCCCCCC(=O)O (stereo not drawn)
40	0.3	12%	COc1ccc(-n2c(=O)cnc3cnc(N4CCOCC4)nc32)cc1

From no. 26 as far as 27, copied from above:
item	Menin MLL FP FL	Sfp PPTase inh	Molecule
26	0.1&-0.3	10µM*	COc1cc(O)c2c(c1)oc(=O)c1c3cc(O)c(O)cc3oc21
27	-0.1[11.7 µM]	13%	CO[C@@H]1COC(=O)[C@H](CCSC)NC(=O)C/C=C\[C@@H](C)COC(=O)[C@@H]2CCCN2C(=O)C/C=C\[C@H]1C

The list continues:
item	Menin MLL FP FL	Sfp PPTase inh	Molecule
41	-4.3[11.7 µM]	-11%	CC(=O)OC[C@@H]1O[C@@H](O/N=C2/C[C@@H](O)[C@@H](O)[C@@H]3[C@@H]4C(=O)N(C5CCCCC5)C(=O)[C@H]4CC[C@H]23)[C@H](OC(C)=O)[C@H](OC(C)=O)[C@@H]1OC(C)=O
42	-3.4	u	CCCn1c(-c2ccc(F)cc2)nc2c(NC3CCN(Cc4ccccc4)CC3)nc(C)nc21
43	14	-12%	CCCCC(C=O)NC(=O)C(CC(C)C)NC(=O)OCc1ccccc1 (stereo not drawn)
44	-0.6	79µM*	c1cncc(-c2cc(-n3ccnc3)ncn2)c1
45	4.4	1%	Cn1cccc1C(=O)N1CCC2(CC1)CCN(c1cccc(-c3ccccc3)c1)CC2
46	1.0[24.8 µM]	15%	COc1cc(/C=C\C(=O)N2CCC=CC2=O)cc(OC)c1OC
47	2.1	u	COc1cccc(Cn2c(=O)c(CCc3ccccc3)nc3cnc(OC)nc32)c1
48	-1.0	9%&16%	CCCCC(C)(C)[C@H](O)/C=C/[C@H]1[C@H](O)CC(=O)[C@@H]1C/C=C\CCCC(=O)O
49	0.5	-6%	CC(=O)OCC(=O)[C@@]1(O)CCC2C3CCC4=CC(=O)CC[C@]4(C)C3C(=O)C[C@]21C (stereo partly drawn)
50	0.3	11%	CC[C@H](CC[C@@H](C)C1CC[C@H]2[C@@H]3CC=C4C[C@@H](O)CC[C@]4(C)[C@H]3CC[C@]12C)C(C)C (stereo partly drawn)
51	u	-11%	Cc1cc2nc3c(=O)[nH]c(=O)nc-3n(CC(O)C(O)C(O)COP(=O)(O)O)c2cc1C (stereo not drawn)
52	-1.9	12%	COC(=O)C1(C(=O)OC)CC2=CC(CC2=O)Cc2ccccc2[C@@H]1C[N+](=O)[O-] (stereo partly drawn)
53	3.0	-5%	CC(Nc1oc(-c2ccccc2)nc1-c1cccc2ccccc12)c1ccccc1 (stereo not drawn)
54	-0.3	-7%	CC(C)ON(C(C(=O)NO)C(C)C)S(=O)(=O)c1ccc(-c2ccccc2)cc1 (stereo not drawn)
55	-3.3[11.7 µM]	2%	C=C(C)CC1(c2ccccc2)Oc2ccccc2-c2nc3cc(Cl)c(Cl)cc3nc21 (stereo not drawn)
56	-4.4	18%	CC(C)CC1(C(=O)O)C=CCN1C(=O)c1ccccc1 (stereo not drawn)
57	2.3[24.8 µM]	10%	C=C1c2c(Cl)ccc(O)c2C(O)=C2C(=O)[C@@]3(O)C(O)=C(C(N)=O)C(=O)[C@@H](N(C)C)[C@@H]3[C@@H](O)[C@H]12
58	2.5	16%	O=c1c(-c2ccc(F)cc2)nc2cncnc2n1-c1ccccc1
59	-0.1	-11%&11%	C=C1C(c2ccc(C)cc2)=CCc2cc(C)cc(C)c21
60	4.1[11.7 µM]	9%	C/C=C/C1=Cc2ccccc2C(CC(=O)OC)N1C(=O)OC (stereo not drawn)
61	-3.2	23%	C=C1[C@@H]2CC[C@H](C2)C1(C)C
62	4.2[94.6 µM]	-9%	COc1ccc2c(c1)C(c1ccccc1C)CC(=O)O2 (stereo not drawn)
63	u	56µM*	O=C(O)CN(CC(=O)O)Cc1cc2c(-c3ccccc3C(=O)O)c3cc(CN(CC(=O)O)CC(=O)O)c(=O)cc-3oc2cc1O
64	5.1	-13%	Brc1c(Br)c(Br)c2[nH]cnc2c1Br
65	1.8	12%	CCC(C(=O)C(C)C(O)C(C)CCc1ccc(C)c(O)c1C(=O)O)C1OC(CC)(C2CC[C@@](O)(CC)C(C)O2)CC1C (stereo partly drawn)
66	u	8%	CCNc1ncc2nc(-c3ccc(Cl)cc3)c(=O)n(C3CC3)c2n1
67	-1.7	-15%	COc1ccc(/C=C/c2cc(OC)c(OC)cc2CC[N+](C)(C)C)cc1
68	-7.4	14%	COc1ccc(CNc2ccnc(-c3ccccc3OC)n2)c(OC)c1
69	1.7	-25%	COc1cccc(C(=O)CC2c3c(c(Br)c4c(c3OC)OCO4)CCN2C)c1 (stereo not drawn)
70	-0.1	16%	CC[C@H]1C2=C3C(CC[C@H]4C(OCc5ccc(F)cc5C(F)(F)F)OC[C@](C)([C@@H]34)N(C(=O)OC(C)(C)C)C2)C(COC)C1COC (stereo partly drawn)
71	-3.6	20%	COC(=O)c1ccc(C(NC(=O)OCc2ccccc2)/C(F)=C/[C@@H](C)C(=O)NCCc2c[nH]c3ccc(OC)cc23)cc1 (stereo partly drawn)
72	-17	10%	OC[C@H]1O[C@@H](n2cnc3c(NCc4ccccc4)ncnc32)[C@H](O)[C@@H]1O
73	-5.7	u	Cc1noc(C)c1-c1nccc(NCc2cccnc2)n1
74	0.1	16%	Nc1nc2c(ncn2C2OC(CO)CC2O)c(=O)[nH]1 (stereo not drawn)
75	-2.1[11.7 µM]	9%	CC#CCN1c2ccccc2[C@]23C[C@@H](C(=O)OC)N(S(=O)(=O)c4ccc(Br)cc4)C2=NC(C(=O)OC)=C(C(=O)OC)[C@H]13
76	-4.0	2%	COc1ccc(NC(=O)N2CC3(CCN(C(=O)c4cccn4C)CC3)C2)cc1
77	-0.2	8%	CC(=O)Oc1c(-c2ccccc2)oc2c(CC=C(C)C)c3c(c(OC(C)=O)c2c1=O)C=CC(C)(C)O3
78	1.0[11.7 µM]	23%	CC(C)=CCC/C(C)=C/CO/N=C1/C[C@@H](O)[C@@H](O)[C@@H]2[C@@H]3C(=O)N([C@@H](C)c4ccccc4)C(=O)[C@H]3CC[C@@H]12
79	-41	-12%	COc1ncc2nc(CCc3ccccc3)c(=O)n(C)c2n1
80	-3.6	19%	O=C(O)c1ccc2c(c1)C(=O)N([C@@H](Cc1ccc(O)cc1)C(=O)O)C2=O
81	-0.6	0%	CC(C)NC(=O)[C@H]1C[C@@H]1[C@H](NC(=O)OCc1ccccc1)c1ccccc1

Profiles, quoted from the list. Order of values: Menin MLL FP FL | Sfp PPTase inh
CC(=O)Oc1c(-c2ccccc2)oc2c(CC=C(C)C)c3c(c(OC(C)=O)c2c1=O)C=CC(C)(C)O3 is listed as -0.2 | 8%
COc1ccc(CNc2ccnc(-c3ccccc3OC)n2)c(OC)c1 is listed as -7.4 | 14%
CC[C@H]1C2=C3C(CC[C@H]4C(OCc5ccc(F)cc5C(F)(F)F)OC[C@](C)([C@@H]34)N(C(=O)OC(C)(C)C)C2)C(COC)C1COC (stereo partly drawn) is listed as -0.1 | 16%
CCNc1ncc2nc(-c3ccc(Cl)cc3)c(=O)n(C3CC3)c2n1 is listed as u | 8%
C=C1[C@@H]2CC[C@H](C2)C1(C)C is listed as -3.2 | 23%

Bioassay records as filed in PubChem BioAssay.

A portion of the library, so the mix of outcomes need not match the whole.
